# Mtb MbtI inh – MbtI salicylate synthase inhibitors, primary screen, biochemical, fluorescence intensity. AID 493033, 2011. inhibition, %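 (about 17 µg/mL by stock and volumes)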. P9WFX0. 100,000 compounds, 0.89% hits. purified MbtI enzyme, fluorescence intensity read-out;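 active means above 50% in both replicates, above 80% if mildly self-fluorescent; inactive means the rest, strongly fluorescent compounds included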;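 further: 0% = mean of negative and 100% = mean of positive controls; one replicate is shown; some compounds called inactive have numbers as strong as hits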
# Target sequence (P9WFX0 whole entry, looked up): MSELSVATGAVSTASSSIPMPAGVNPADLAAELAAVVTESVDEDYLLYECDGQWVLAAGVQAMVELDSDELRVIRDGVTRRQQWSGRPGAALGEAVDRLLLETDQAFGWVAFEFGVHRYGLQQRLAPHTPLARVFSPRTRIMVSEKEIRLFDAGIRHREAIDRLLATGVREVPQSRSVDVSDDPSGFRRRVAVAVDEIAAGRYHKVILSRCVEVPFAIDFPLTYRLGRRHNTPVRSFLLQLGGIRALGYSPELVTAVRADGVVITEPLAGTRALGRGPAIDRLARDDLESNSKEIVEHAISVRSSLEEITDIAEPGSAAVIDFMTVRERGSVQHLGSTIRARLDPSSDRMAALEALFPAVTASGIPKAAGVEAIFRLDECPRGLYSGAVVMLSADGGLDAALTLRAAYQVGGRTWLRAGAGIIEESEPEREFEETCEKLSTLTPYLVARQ
# PV pol inh – poliovirus RdRp elongation inhibitors, primary screen, biochemical, fluorescence polarization, total intensity; Genome polyprotein (Poliovirus type 1 (strain Mahoney)), P03300; poliovirus polymerase elongation; stronger effect = lower value; % elongation, % (compound at 16.7 µg/mL); 150,000 compounds, 0.66% hits; AID 588519, 2011; in the data active means % elongation below about 90%; further: some results filed as inactive read as strong as hits
# Mtb MenB inh – M. tuberculosis MenB inhibitors, primary screen, biochemical, absorbance; MenB enzyme assay, absorbance read-out; some hits fall short of the stated cut; inhibition, %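 (about 12 µg/mL by stock and volumes)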; 100,000 compounds, 0.43% hits;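 active means mean of two replicates above 30%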;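 further: 0% = no compound and 100% = wells with inactive enzyme; the first replicate is given; strong numbers were not always called active; inactives centre near -10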
# Target sequence (P9WNP5 whole entry, looked up): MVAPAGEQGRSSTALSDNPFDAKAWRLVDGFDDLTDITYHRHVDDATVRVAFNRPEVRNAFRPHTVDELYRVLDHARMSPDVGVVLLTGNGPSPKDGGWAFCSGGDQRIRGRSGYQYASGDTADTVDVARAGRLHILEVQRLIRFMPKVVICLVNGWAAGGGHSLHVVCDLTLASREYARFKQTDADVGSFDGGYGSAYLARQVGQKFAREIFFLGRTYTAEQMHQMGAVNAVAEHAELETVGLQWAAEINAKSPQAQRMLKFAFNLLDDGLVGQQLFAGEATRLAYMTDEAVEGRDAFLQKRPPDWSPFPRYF
# PV pol inh intensity – further read-out of PV pol inh, marked with its call; % elongation; measured here: total intensity read-out; formula for this scale not given here;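 total fluorescence in place of polarization; lower means less elongation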
# Starred values were filed as active, the others as inactive; / = no result given; & = joins results of further samples. Compounds were not picked by outcome. About 1.9% of those tested had a hit in this group.
mol,Mtb MbtI inh,PV pol inh,PV pol inh intensity,Mtb MenB inh
Cc1cc(C(=O)CN(Cc2ccco2)S(=O)(=O)/C=C/c2ccccc2)c(C)n1C,32.0,101.0,105.0,-27.1
CN(C)C(=O)N(C)C1CCS(=O)(=O)C1 (stereo not given),-8.9,105.0,100.0,-63.0
Cc1nc(-c2ccccc2O)n[nH]1,-267.2,101.0,104.0,/
COC(=O)c1c(NC(=O)CC2Nc3cc(C)c(C)cc3NC2=O)sc(C)c1C (stereo not given),1.6,101.0,119.0,-9.5
O=c1cc[nH]c2cccc(Cc3ccccc3)c12,/,96.0,90.0,-18.6
Cn1c2nc(-[n+]3ccc(C(=O)[O-])cc3)nc-2c(O)n(C)c1=O,/,100.0,99.0,-47.1
CCC1CCCCN1c1cc(C)nc2cc(-c3cc(OC)cc(OC)c3)nn12 (stereo not given),191.7,103.0,101.0,-43.5
CCc1ccc(NC(=O)CCCN2C(=O)CCC2=O)cc1,-9.4,103.0,104.0,-13.8
O=CN/N=C/c1c(O)ccc2ccccc12,27.6,106.0,145.0,-39.6
OCCNc1nc(N2CCN(c3ccccc3)CC2)nc2ccccc12,/,97.0,101.0,8.1
CC1(C)COC(N2c3ccccc3Sc3ccccc32)=N1,12.8,103.0,106.0,10.5
COc1ccc(N(C)S(=O)(=O)c2c(C)noc2C)c(OC)c1,1.6,102.0,98.0,-17.4
O=C(CCCn1c(=O)c2cccn2c2ccccc21)NC1CCCc2ccccc21 (stereo not given),4.9,100.0,97.0,-7.1
CCOC(=O)c1[nH]c(=O)[nH]c1CNc1ccccc1C#N,44.5,101.0,105.0,-28.8
CCCCc1nnc(SCC(=O)N2CCc3ccccc32)n1C,10.5,102.0,102.0,-34.7
COc1ccc(Cn2c(CCC(=O)NCCC3=CCCCC3)nc3ncccc3c2=O)cc1,3.4,101.0,101.0,3.9
CC1CCc2sc(-c3nnc(SCC(=O)c4ccc(NS(C)(=O)=O)cc4)o3)cc2C1 (stereo not given),-11.3,100.0,98.0,-33.8
O=C(C1Cc2ccccc2N1C(=O)c1ccccc1)N1CCCC1 (stereo not given),-1.0,104.0,98.0,-23.9
CC(SC(=S)N1CCOCC1)C(=O)O (stereo not given),7.8,100.0,95.0,-37.2
Cc1cc(C)n(C(=O)c2ccccc2C(=O)O)n1,-11.3,100.0,101.0,4.4
CN(C(=O)Cn1c(=O)n(CCC(=O)NCCc2ccccc2)c(=O)c2ccccc21)C1CCCCC1,2.5,103.0,97.0,4.2
O=C(Nc1c2c(nc3c1CCC3)CCCC2)C1CCCCC1,-13.4,104.0,106.0,-32.3
c1ccc(-n2ncc3c2ncn2cnnc32)cc1,18.4,102.0,106.0,/
CCOC(=O)N1CCN(Cc2ccc(Cl)cc2)CC1,-5.2,102.0,102.0,-0.6
CCCCC/C=C\C/C=C\C/C=C\C/C=C\CCCC(=O)NCC(=O)O,-9.3,102.0&101.0,102.0&101.0,-3.1
CN1C(=O)C2(NCCc3c2[nH]c2ccccc32)c2ccccc21 (stereo not given),-1.9,103.0,102.0,8.1
CCC/C(O)=C1\C(=O)CC(C)(C)CC1=Nc1ccccc1OC,-4.7,100.0,98.0,-37.8
CC(C(=O)N(C)Cc1ccccc1)n1ccc2cc(S(=O)(=O)N3CCCCCC3)ccc21 (stereo not given),93.6,105.0,103.0,-68.3
COC(=O)C12CC3CC(C1)C(=O)C(C3)C2,-11.8,102.0,95.0,/
CNC(=S)NN(c1ccccc1)c1ccccc1,-8.1,104.0,106.0,-11.7
O=C(COc1ccc2ccccc2c1)NN1CCCCC1,-0.4,98.0,101.0,-18.9
CCOC(=O)NN=C1c2ccccc2-c2ccccc21,8.8,99.0,101.0,-1.0
O=C(/C=C/c1ccc(-c2ccc(F)cc2)o1)N1CCCCC1,-8.1,101.0,100.0,/
O=C(Cc1cccs1)Nc1nc(-c2ccccc2)cs1,/,103.0,98.0,-33.1
O=C(c1ccco1)N1CCCCCCC1,-14.8,103.0,104.0,1.2
CC(Sc1ccc2c(c1)OCCO2)C(N)=O (stereo not given),1.6,103.0,108.0,5.6
COc1ccc(S(=O)(=O)N(CC(N)=O)Cc2ccccc2)cc1C,1.2,102.0,99.0,-34.0
N#Cc1cccnc1Br,2.8,106.0,98.0,-22.0
OC[C@@H]1CCCN2CCCCC12 (stereo not given in full),5.4,101.0,103.0,-23.1
Cc1ccc(CNC(=O)c2ccccc2N(C)S(C)(=O)=O)cc1,18.8,100.0,103.0,12.6
CCCC12CN3CC(C)(CN(C1)C3c1c[nH]c3ccc(OC)cc13)C2=O (stereo not given),-8.9,104.0,100.0,-2.2
O=S(=O)(Nc1ccccc1Oc1ccccc1)c1ccc(-c2ccon2)s1,-5.2,109.0,110.0,-16.9
O=C1CCCCC1Sc1nnc2n(-c3ccccc3)c(=O)c3ccccc3n12 (stereo not given),-0.4,101.0,102.0,-15.7
N=C1SCCN1CC(=O)c1ccc(O)cc1,16.2,101.0,97.0,9.1
O=C(NCCc1ccccc1)c1noc2c1CCCCC2,8.2,101.0,105.0,-12.3
O=C(Cc1ccccc1)NCC(=O)OCc1ccccc1F,-8.8,101.0,103.0,-17.9
CC(=O)OCCn1c(=O)c2ccccc2c2ccccc2c1=O,-11.8,103.0,107.0,-25.2
COc1ccc(NC(=O)c2cccn(OCc3ccccc3)c2=O)cc1,2.7,101.0,105.0,-10.1
CCSc1nc(C)cc(COC)c1C#N,/,101.0,110.0,-9.9
CSCc1nnc(NC(=O)c2ccc(S(=O)(=O)N(C)Cc3ccccc3)cc2)o1,-2.4,100.0,103.0,-23.4
O=C(c1ccccc1)c1nc2ccccc2[nH]1,-0.4,101.0,95.0,-10.6
Cc1nccn1CC(O)Cn1c2ccccc2c2ccccc21 (stereo not given),-10.7,99.0,103.0,/
CC(Nc1ncccn1)C1CC2CCC1C2 (stereo not given),104.0,98.0,107.0,6.2
O=C(COc1ccc(-c2nnco2)cc1)Nc1cc(C(F)(F)F)ccc1-n1cncn1,-7.2,112.0,128.0,-5.3
O=S(=O)(CCSc1ccccc1)c1ccccc1,-8.3,104.0,111.0,-17.9
O=C(Nc1ccccc1)OCCCc1ccccc1,12.6,102.0,106.0,-15.2
O=C(NCSc1nc2ccccc2o1)c1cc2ccccc2o1,35.1,98.0,95.0,-16.4
Cc1c(O)ccc(C(=O)CN2CC(C)OC(C)C2)c1O (stereo not given),20.6,100.0,103.0,10.5
O=c1c(=O)n(-c2cccc(Cl)c2)ccn1Cc1cccc(C(F)(F)F)c1,-6.1,103.0,107.0,5.3
NS(=O)(=O)c1ccc(CNC(=O)C23CC4CC(CC(C4)C2)C3)cc1,-5.5,103.0,100.0,/

# Other compounds follow:
mol,Mtb MbtI inh,PV pol inh,PV pol inh intensity,Mtb MenB inh
O=S(=O)(c1ccccc1)C(Cc1ccc(F)cc1)c1ccco1 (stereo not given),-6.1,101.0,99.0,/
CCN(CC)S(=O)(=O)c1ccc(Sc2cccc(C(F)(F)F)c2)nc1,5.3,98.0,109.0,-17.0
CCOC(=O)c1c(C)n(Cc2ccccc2)c2ccc(OC(C)=O)cc12,-4.9,104.0,99.0,-27.1
Fc1ccccc1CN1CCC(CNc2nc(-c3ccccc3)no2)CC1,-13.5,103.0,104.0,-9.6
Cc1cc(OCC(=O)NN)no1,0.4,107.0,103.0,-28.2
Cc1cc(C)n(CCCNCC(O)c2ccccc2)n1 (stereo not given),-4.0,101.0,103.0,-4.5
CC(=S)Nc1c(O)[nH]c2ccccc12,0.4,103.0,105.0,-16.8
CN(C)c1cccc(NC(=O)c2cccs2)c1,-4.2,104.0,95.0,/
CCCCCn1c(N)c(C#N)c2nc3ccccc3nc21,-21.9,95.0,101.0,-4.1
CCN(CC)c1ccc(C2(O)C(=O)c3ccccc3C2=O)cc1,-13.9,102.0,101.0,/
O=C1CCCCC1C(=O)c1ccccc1 (stereo not given),-10.1,109.0,109.0,-15.1
CCCC1O[C@@H]2CC3C4CCC5=CC(=O)C=CC5(C)C4[C@@H](O)CC3(C)[C@]2(C(=O)CO)O1 (stereo not given in full),-8.1,100.0,100.0,-0.3
CC(C)(C)S(=O)(=O)c1ccccc1/C=N/O,/,111.0,105.0,5.0
COc1ccc(S(=O)(=O)N(C)C(C)C(O)c2ccccc2)cc1 (stereo not given),1.1,100.0,107.0,-36.3
CCc1cccc2c1NC1(CCCC1)CC2C (stereo not given),4.3,100.0,106.0,-14.4
O=C(c1ccccc1)N(c1ccccn1)c1ccccn1,-1.9,103.0,101.0,/
C#CCn1c(=NC(=O)c2ccccc2)sc2cc(S(N)(=O)=O)ccc21,118.0,100.0,102.0,-4.8
CCC(=O)Oc1ccc2c(C)c(Cl)c(=O)oc2c1,109.8,100.0,101.0,3.1
Nc1nonc1/C(=N/O)N1CCCC1,7.8,101.0,101.0,26.2
CN(C(=O)CSc1nc(-c2ccccc2)cc(-c2ccco2)c1C#N)c1ccccc1,6.1,102.0,101.0,6.5
CC1=C(C)C(=O)C(N2CCOCC2)=CC1=O,0.0,95.0,105.0,-27.8
COc1cc(C)c(S(=O)(=O)n2ccnc2)cc1C(C)C,-0.8,101.0,102.0,3.5
Fc1cccc(Nc2nc(Cl)nc(Cl)n2)c1,2.4,98.0,102.0,47.9*
COc1ccc(OC)c(S(=O)(=O)NCc2nn(-c3ccccc3)nc2C)c1,-9.2,105.0,114.0,-23.8
Cc1cc2nc(N3CCCC(C(F)(F)F)C3)c3ccccc3n2n1 (stereo not given),-0.2,/,/,-24.2
CC1CCCCN1c1csc2ccccc2c1=O (stereo not given),17.2,99.0,102.0,-220.1
CCc1ccc(NC(=O)CNC(=O)Cn2ccc3ccccc3c2=O)cc1,-4.2,101.0,106.0,-10.1
c1ccc2c(c1)CN1CCCCN1C2,3.5,102.0,102.0,2.0
NC(=O)COC(=O)CSc1ccc(Cl)cc1,9.8,100.0,99.0,-10.8
S=c1sscc1-c1ccccc1,/,53.0*,62.0*,-76.7
CCCN(CCC)C(=O)c1cc2c(n(-c3ccc(Cl)c(Cl)c3)c1=O)CC(C)(C)CC2=O,-10.3,102.0,108.0,-16.5
COc1ccc(CC(=O)n2c(=O)oc3ccc(C)cc32)cc1,7.2,98.0,101.0,-4.0
CC1(C)CC(NC(=O)c2ccc(C(=O)c3ccccc3)o2)CC(C)(C)N1,/,101.0,107.0,3.4

# Screening data: PubChem BioAssay, ICCB-Longwood Screening Facility, Harvard Medical School
